High-throughput results: PubChem BioAssay, Johns Hopkins Ion Channel Center
KCNQ2 inh – KCNQ2 potassium channel inhibitors, primary screen, cell-based, CHO-K1, FluxOR thallium flux, B-score (AID 2156). hit rate 1.1% among 310,000. O88943. B-score at 10 µM. 20 min; active compounds read low; only compounds with negative scores are shown here; some inactives read as strong as hits;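 active = fluorescence ratio B-score at most minus 3 library SDs, with starting brightness B-score within 2 library SDs, cut at about -5.5 in these data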
Target sequence (O88943 whole entry, looked up): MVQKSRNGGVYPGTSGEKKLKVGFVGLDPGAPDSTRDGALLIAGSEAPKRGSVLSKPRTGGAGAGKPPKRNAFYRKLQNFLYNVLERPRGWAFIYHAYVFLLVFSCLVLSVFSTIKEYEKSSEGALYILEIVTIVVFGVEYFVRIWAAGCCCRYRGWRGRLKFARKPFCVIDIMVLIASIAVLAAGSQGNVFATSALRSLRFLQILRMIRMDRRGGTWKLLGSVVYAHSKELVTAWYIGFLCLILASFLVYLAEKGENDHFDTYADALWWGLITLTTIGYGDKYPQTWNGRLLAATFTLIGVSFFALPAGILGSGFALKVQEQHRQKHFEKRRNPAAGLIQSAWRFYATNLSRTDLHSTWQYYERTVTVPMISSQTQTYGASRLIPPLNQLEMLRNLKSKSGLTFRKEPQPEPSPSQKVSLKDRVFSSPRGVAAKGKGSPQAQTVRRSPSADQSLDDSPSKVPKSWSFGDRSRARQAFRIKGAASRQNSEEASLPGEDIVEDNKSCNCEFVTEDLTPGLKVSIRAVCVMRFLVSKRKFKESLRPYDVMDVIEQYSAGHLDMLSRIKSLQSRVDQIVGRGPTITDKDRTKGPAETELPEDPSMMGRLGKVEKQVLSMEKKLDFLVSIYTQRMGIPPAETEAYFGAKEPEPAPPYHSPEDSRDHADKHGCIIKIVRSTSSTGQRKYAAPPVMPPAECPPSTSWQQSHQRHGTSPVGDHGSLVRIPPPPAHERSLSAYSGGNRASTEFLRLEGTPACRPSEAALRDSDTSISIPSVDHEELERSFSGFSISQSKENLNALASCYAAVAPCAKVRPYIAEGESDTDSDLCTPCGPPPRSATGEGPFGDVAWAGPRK
KCNQ2 inh baseline – recorded beside KCNQ2 inh, whose call it bears; B-score; measured here: initial fluorescence intensity artifact check;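 brightness before thallium and not channel activity; 0 = typical well and far values either way flag optical interference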
Starred values were filed as active, the others as inactive; i = inactive. A portion of the library (hit frequency here may not be typical).

The first two entries, ahead of the listing:
SMILES	KCNQ2 inh	KCNQ2 inh baseline
Cc1ccc(N2CC(C(=O)NCCC3=CCCCC3)CC2=O)cc1 (configuration not stated)	i	-0.13
N#CCCN(CCC#N)C(=O)c1ccc(Cl)cc1	i	0.97

Main list, from the first entry:
SMILES	KCNQ2 inh	KCNQ2 inh baseline
Cc1ccc(N2CC(C(=O)NCCC3=CCCCC3)CC2=O)cc1 (configuration not stated)	i	-0.13
N#CCCN(CCC#N)C(=O)c1ccc(Cl)cc1	i	0.97
CN1CCN(c2nc(-c3cccc([N+](=O)[O-])c3)nc3ccccc23)CC1	i	-0.58
COc1cc(NC(=O)CSCc2cnn(-c3ccccc3)c2-n2cccc2)cc(OC)c1	i	0.58
CCN(Cc1ccncc1)Cc1nc(-c2ccc(C(=O)OC)cc2)no1	i	2.31
COc1ccc(NS(=O)(=O)c2cc(C(=O)Nc3ccccc3C(=O)O)ccc2C)cc1	i	2.77
Cc1cccc(C)c1NC(=O)COc1ccc2c(C)c(Cc3ccccc3)c(=O)oc2c1C	i	0.41
CCOC(=O)C1CCCN(CCC(=O)Nc2cc(C)ccc2C)C1 (configuration not stated)	i	-1.07
O=P(COCCOCCOCP(=O)(c1ccccc1)c1ccccc1)(c1ccccc1)c1ccccc1	i	-0.28
N/N=C(\Cc1cscn1)c1ccc(O)cc1O	i	-0.11
COc1ccccc1C(C)NC(=O)c1ccc(C)o1 (configuration not stated)	i	0.21
O=C1CC(N(CCc2ccccc2)C(=S)Nc2ccccc2)C(=O)N1c1ccc(F)cc1 (configuration not stated)	i	1.12
CCCC/C(C)=N/NC(=O)C(=O)NCCc1ccccc1	i	-2.58
CC(C)Oc1ccc(C(CC(=O)N2CCOCC2)C(C)C)cc1 (configuration not stated)	i	-0.34
Cc1ccc(S(=O)(=O)N(CC(=O)Nc2cc(C)ccc2C)C(=O)N2CCN(C)CC2)cc1	i	-1.34
CC(C)c1ccc(NC(=O)CCNC(=O)Cn2cnc3ccccc3c2=O)cc1	i	3.25
COc1ccc(CCNC(=O)C/C(C)=N/NC(=O)COc2ccc(C)cc2Br)cc1OC	i	0.32
Cc1nonc1NC(=O)CSc1nc2c(C)cccc2cc1C#N	i	-0.14
Cc1ccc(CCNC(=O)c2ccc3nc4ccc(Cl)cc4c(=O)n3c2)cc1	i	0.75
COc1ccc(/C(C)=N/NC(=O)c2cccc(S(=O)(=O)N3CCCC3)c2)c(O)c1	i	0.11
CC(=O)c1cn(CC(=O)Nc2ccccc2C(F)(F)F)c2ccccc12	i	-1.09
COc1ccc(C(=O)NC2CCCCCCC2)cc1OC	i	-0.68
CCOC(=O)c1nn(-c2ccc(Cl)cc2Cl)c(=N)c(C#N)c1C	i	0.6
COc1ccc(CCNC(=O)Nc2ccccc2[N+](=O)[O-])cc1	i	-0.16
COc1ccc(C(=O)N2CCN(c3nc(C4CC4)nc4sc(C)c(C)c34)CC2)cc1	i	-0.8
Cc1ccc(-c2cnc(NC(=O)CCC(=O)N(C)Cc3ccccc3)n2C)cc1	-7.93*	1.1*
CC(C)CCSc1nc2ccccc2[nH]1	i	0.79
CCOc1ccc(N(CC(=O)Nc2cccc(C)c2C)S(=O)(=O)c2c(C)[nH]c(=O)[nH]c2=O)cc1	i	-0.86
CC(=O)NNC(=O)N1Cc2ccccc2Oc2ccc(Cl)cc21	i	0.1
CCOc1cc(CNc2ccc3c(c2)OCCO3)cc(Br)c1OC	i	-0.2
COc1ccc(CN2CCCN(S(=O)(=O)c3ccc(Br)cc3)CC2)cc1	i	2.73
CCOC(=O)c1sc(N)c(C#N)c1CSc1nc2ccc(OCC)cc2[nH]1	i	-0.47
Cc1c(C)c2ccc(OC(C)C(=O)NC3CCN(Cc4ccccc4)CC3)cc2oc1=O (configuration not stated)	i	0.86
CCOC(=O)C1(CCOc2ccccc2)CCN(Cc2cccn2-c2cccnc2)CC1	i	0.09
O=C(/C=C/c1cccc([N+](=O)[O-])c1)NCCSCc1ccco1	i	-0.14
Cc1ccccc1-n1nc(C)c(N=O)c1N	i	-0.93
COc1ccc(CNC(=O)CCCn2nc([N+](=O)[O-])cc2C)cc1	i	0.03
CCOc1ccc(NC(=S)Nc2ccc(C)c([N+](=O)[O-])c2)cc1	i	-1.24
OC(CNC1CCCC1)COc1ccccc1Br (configuration not stated)	i	1.58
O=C(C1CCCN(c2ncnc3c2nc2n3CCCCC2)C1)N1CCN(c2ccccc2F)CC1 (configuration not stated)	i	1.13
CCCNC1CCS(=O)(=O)C1 (configuration not stated)	i	0.36
O=C(N/N=C/c1ccccc1)c1sccc1OCc1ccc(F)cc1	-6.82*	-0.97*
COc1ccc(-c2csc(COC(=O)C(C)(C)C)n2)cc1	i	-0.24
O=C(CC1COc2ccccc2O1)Nc1ccccn1 (configuration not stated)	i	0.03
Cc1cc(OC(=O)c2cccc(C(F)(F)F)c2)c([N+](=O)[O-])c(=O)[nH]1	i	-0.03
CCOC(=O)C1=C(O)C(=O)N(Cc2ccccc2)C1	i	2.13
COc1ccc(CNC(=O)CN(C)Cc2ccc(SC)cc2)cc1	i	0.25
CCCOc1ccc(N)cc1N	i	1.2
CC1Cn2c(COc3ccccc3)nnc2S1 (configuration not stated)	i	0.28
CC(=O)NC(CC(C)C)C(=O)NC(Cc1ccccc1)C(N)=O (configuration not stated)	i	-2.68
COCCn1c(=NC(=O)CSCC(=O)N2CCOCC2)sc2ccccc21	i	1.04
CN1/C(=C\C(=O)Nc2ccc(Cl)cc2)C(C)(C)c2ccccc21	-8.06*	-0.8*
O=C(NC1=NCCS1)c1cccc2ccccc12	i	-0.62
Cc1c(NC(=O)CSc2ccccc2F)c(=O)n(-c2ccccc2)n1C	i	1.35
Cc1cc(C)cc(NC(=O)C(OC(=O)c2ccc(NC(=O)CC#N)cc2)c2ccccc2)c1 (configuration not stated)	i	-0.8
CCOc1cc(NC(=O)c2ccccc2C(=O)O)c(OCC)cc1NC(=O)c1ccccc1F	i	1.58
Cc1ccn2c(=O)nc(SCC(=O)N3CCCCCC3)nc2c1	i	-0.62
COC(=O)CC1COc2ccccc2N1C(=O)c1ccc(Br)cc1 (configuration not stated)	i	0.16
Cc1ccccc1NC(=O)CN1C(=O)CSc2ccc(S(=O)(=O)N3CCCCC3)cc21	i	-0.41
Cc1nnc(SCC(=O)Nc2cc(S(C)(=O)=O)ccc2Cl)n1Cc1ccccc1	i	-3.4

One compound at a time (already shown):
CC(C)Oc1ccc(C(CC(=O)N2CCOCC2)C(C)C)cc1 (configuration not stated) reads KCNQ2 inh = i; KCNQ2 inh baseline = -0.34
Cc1cccc(C)c1NC(=O)COc1ccc2c(C)c(Cc3ccccc3)c(=O)oc2c1C reads KCNQ2 inh = i; KCNQ2 inh baseline = 0.41

Next part:
SMILES	KCNQ2 inh	KCNQ2 inh baseline
O=C(COC(=O)c1cnccn1)NC(=O)c1ccccc1	i	0.13
CCOC(=O)/C(=N\Nc1ccccc1Cl)N(C)C1CCS(=O)(=O)C1 (configuration not stated)	i	-0.37
Cc1cccc(NC(=O)CNC(=O)N2CC(=O)Nc3ccccc32)c1C	i	1.95
c1ccc(-c2csc(Nc3ccc4c(c3)OCCO4)n2)cc1	i	1.2
Cc1cc(OCC(=O)N(Cc2ccco2)C2CCS(=O)(=O)C2)cc(C)c1Cl (configuration not stated)	i	-1.9
CNC(=S)NNC(=O)c1cccn(Cc2ccccc2)c1=O	i	-1.48
Cc1ccc(S(=O)(=O)N2CCOCC2)cc1NC(=O)COC(=O)CNC(=O)c1ccc(Cl)cc1Cl	i	0.07
CN1C(N)=NC(=O)/C1=C/c1ccccc1F	i	0.01
CCn1c(COc2ccc(C)cc2)nnc1SCC(=O)Nc1ccc(S(N)(=O)=O)cc1	i	0.47
COc1ccc2c(c1)c(C(=O)CN1CCc3ccccc3C1)c(C)n2C	i	0.14
O=C(O)CCc1ccc(-c2ccc(Br)cc2)n1Cc1ccco1	i	3.5
Clc1ccc(OCc2nnc(-c3ccccc3Br)o2)cc1	i	-0.31
C=CCNC(=O)/C(=C/c1ccc(Br)cc1)NC(=O)c1ccccc1OC	i	-0.78
C/C(=C(\C#N)C(=O)NCCN1CCOCC1)N(C)C	i	1.27
O=C(COC(=O)c1ccc(CNS(=O)(=O)c2ccc(F)c(Cl)c2)cc1)NC1CCCCCCC1	i	0.04
CCCCSc1nc(O)c(Cc2ccccc2)c(=O)[nH]1	i	2.59
Cc1cccc(C(C)C)c1NC(=O)CN(C)Cc1cccc(F)c1	i	-0.48
COc1cc(NC(=O)c2cccs2)c(OC)cc1NC(=O)c1ccco1	i	1.02
COC(=O)c1ccccc1NC(=O)c1cn(-c2ccc(C)c(C)c2)c(=O)c2ccccc12	i	-2.48
CC(=O)NC(C(=O)OCC(=O)N(c1ccccc1)c1ccccc1)C(C)C (configuration not stated)	i	-0.3
O=S(=O)(c1ccc(F)cc1)c1nc(-c2ccccc2)oc1N1CCOCC1	i	0.24
CCC1=NN2C(=N)/C(=C/c3ccc(OS(=O)(=O)c4ccccc4)c(OC)c3)C(=O)N=C2S1	i	-1.88
COc1ccc(NC(=O)CN(C)C(=O)c2cccc(-n3cccc3)c2)cc1	i	0.76
Cc1ccc(C2=Nc3ccccc3N(C(=O)c3ccccc3)C(C)C2)cc1 (configuration not stated)	i	0.58
C[C@H](C(=O)O)c1cccc(C(=O)c2ccccc2)c1	i	-1.07
CCCCNC(=O)c1onc(CSc2ccc(F)c(F)c2)c1C(=O)NCCCC	i	-0.72
CCCc1c(C(=O)NNc2ccc(C)cc2)cnn1-c1ccccc1	i	-0.4
COc1ccc(C2(C)NC(=O)N(CC(=O)Nc3ccc(-c4nc5ccc(C)cc5s4)cc3)C2=O)cc1 (configuration not stated)	i	0.45
Cc1ccc(S(=O)(=O)N2CN(Cc3ccco3)c3nc4ccccc4nc32)cc1	i	0.82
COc1cc(NC(=S)NC(=O)c2ccccc2F)ccc1NC(=O)c1ccco1	i	0.58
Cc1cccnc1CN1CCN(Cc2nc(Cc3cccc(F)c3)no2)CC1	i	1.57
C/C(=N/NC(=O)c1ccc2c(c1)OCO2)c1ccc(Br)s1	i	-0.11
CCOc1ccccc1N(CC(=O)NCCSc1ccccc1)S(C)(=O)=O	i	-0.28
CCc1nc(SCc2ccccc2)n[nH]1	i	1.55
COc1ccc(-n2c(SCc3cn4c(C)cccc4n3)nc3ccccc3c2=O)cc1OC	i	-0.11
NS(=O)(=O)c1ccc(NC(=O)/C=C/c2cccs2)cc1	i	-1.64
CCOC(=O)Cn1c(=N)n(CCOc2ccc3ccccc3c2)c2ccccc21	i	-0.8
CC(C)[C@H](NC(=O)[C@@H]1CSC2c3ccccc3C(=O)N21)C(=O)N1CCCCC1 (some centres not stated)	i	0.66
COc1ccc(C2SCCN2C(=S)Nc2cccc(Cl)c2)cc1 (configuration not stated)	i	-0.64
COc1ccc(C(CCNCc2ccc(F)cc2)c2ccc(F)cc2)cc1 (configuration not stated)	-7.19*	-1.61*
CCCc1nc2ccccc2c(=O)n1NC(=O)c1c(O)c2ccccc2[nH]c1=O	i	-0.11
CCOC(=O)C1CCCN(C2=NC(=O)/C(=C/c3ccc(N(C)C)cc3)S2)C1 (configuration not stated)	i	11.2
COc1ccc(-c2nnn(CC(=O)N(Cc3ccc(F)cc3)C(C(=O)NC3CCCC3)c3ccc(F)cc3)n2)cc1 (configuration not stated)	i	1.08
O=C(CCc1nc(-c2ccccc2Cl)no1)NCCc1ccccc1	i	0.36
O=C(Oc1ccc(=O)n(-c2ccccc2)n1)c1ccccc1	i	-0.12
COc1cc(NC(=O)Cn2cnc3sc(C)c(S(=O)(=O)N4CCOCC4)c3c2=O)cc(OC)c1OC	i	0.07
Cc1coc2cc3oc(=O)c(CCC(=O)O)c(C)c3cc12	i	-0.21
O=C1Nc2ccccc2C1(c1ccccc1)c1ccccc1	i	2.02
COc1ccc(CN2CCN(Cc3ccc(Br)cc3)CC2)c(OC)c1OC	i	0.84
COC(=O)CNC(c1ccccc1Cl)c1cc(Br)ccc1NS(=O)(=O)c1ccc(C)cc1 (configuration not stated)	i	1.46
COC(=O)c1[nH]c2ccc(C)cc2c1NC(=O)CN1CCN(c2ccccc2)CC1	i	-1.88
COc1ccc(Cl)cc1N(CC(=O)Nc1ccccc1C(=O)NCc1ccco1)S(C)(=O)=O	i	1.52
Cc1cccc2c(=O)c(-c3ccc4c(c3)OCO4)c(NC(=O)c3ccco3)oc12	i	0.08
Cc1cc(C)nc(NC(=NCCc2c[nH]c3ccccc23)NC(=O)Nc2ccccc2)n1	i	0.27
COCc1cc(C)nc(N/N=C/c2ccc(-c3cc(C(=O)O)ccc3Cl)o2)c1C#N	i	1.27
Clc1ccc(Cc2nn3c(Cn4nnc5ccccc54)nnc3s2)cc1	i	0.66
O=C(NCCO)c1cc(-c2cc(C(=O)NCCO)c3ccccc3n2)nc2ccccc12	i	0.04
CC(C)[C@H](NC(=O)c1ccccc1)C(=O)OCC(=O)/C=C1/N(C)c2ccccc2C1(C)C	i	-0.58
COc1cccc(-c2nc(CS(=O)CC(=O)NCc3ccccc3Cl)c(C)o2)c1 (configuration not stated)	i	-0.82
Cc1sc2ncn(/N=C/c3ccco3)c(=O)c2c1C	i	0.3

Shown in markdown: six of the compounds above
| SMILES | KCNQ2 inh | KCNQ2 inh baseline |
| --- | --- | --- |
| COc1ccc(-n2c(SCc3cn4c(C)cccc4n3)nc3ccccc3c2=O)cc1OC | i | -0.11 |
| Cc1c(C)c2ccc(OC(C)C(=O)NC3CCN(Cc4ccccc4)CC3)cc2oc1=O (configuration not stated) | i | 0.86 |
| CCn1c(COc2ccc(C)cc2)nnc1SCC(=O)Nc1ccc(S(N)(=O)=O)cc1 | i | 0.47 |
| Cc1cccc(NC(=O)CNC(=O)N2CC(=O)Nc3ccccc32)c1C | i | 1.95 |
| C=CCNC(=O)/C(=C/c1ccc(Br)cc1)NC(=O)c1ccccc1OC | i | -0.78 |
| CC(=O)NC(CC(C)C)C(=O)NC(Cc1ccccc1)C(N)=O (configuration not stated) | i | -2.68 |
